D2 potentiator: potentiates the human D2 dopamine receptor allosterically; AID 624464; 360,000 compounds, 0.23% hits; potentiation, % (concentration not given with the values); DiscoveRx D2 beta-arrestin cells, luminescence, 90 min; 100% = 57 uM dopamine signal; active = potentiation of 50% or more; inconclusive = 30% to 50%; inactive = 30% or less;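 further: tested on top of an EC20 dose of dopamine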
Target sequence (P14416 whole entry, looked up): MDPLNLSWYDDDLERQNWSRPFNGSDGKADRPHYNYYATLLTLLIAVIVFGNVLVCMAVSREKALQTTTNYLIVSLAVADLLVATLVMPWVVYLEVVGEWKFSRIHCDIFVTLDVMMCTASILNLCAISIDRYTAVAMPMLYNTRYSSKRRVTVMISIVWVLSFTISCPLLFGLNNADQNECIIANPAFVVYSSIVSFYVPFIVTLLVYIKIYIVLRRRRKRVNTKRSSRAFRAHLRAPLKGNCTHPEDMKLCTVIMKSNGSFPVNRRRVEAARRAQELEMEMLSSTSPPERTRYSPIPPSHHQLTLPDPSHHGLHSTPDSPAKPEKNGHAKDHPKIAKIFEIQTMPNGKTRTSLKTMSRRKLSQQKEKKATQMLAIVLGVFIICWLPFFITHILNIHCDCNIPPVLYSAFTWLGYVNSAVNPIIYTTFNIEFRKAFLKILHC
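PathHunter D2 cells, attached overnight at 37 deg C, received compound in DMSO plus dopamine at EC20 (50 nM final) for 90 min at 37 deg C. Beta-arrestin recruitment was read as luminescence after 1 h with detection reagent at ambient temperature.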
CtBP-E1A inh: inhibitors of CtBP/E1A interaction | AlphaScreen GST-E1A/His-CtBP binding, 1536-well; stronger effect = lower value; control for the full effect not named in the record | activity change, % (no concentration beside the values) | 340,000 compounds, 0.49% hits | AID 651724; in the data active means activity change below about -65%; inconclusive means about -30% to -65%; inactive means above about -30%; further: on the % scale 0 is the no-effect control and ±100 the full control effect
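Steps: dispense buffer (Tris pH 8.0, NaCl 300 mM, TCEP 1 mM, BSA, Tween 20); add 5X protein mix (GST-E1A, His-CtBP, 125 nM each); pin 23 nL compound; 2 h at 37 °C, dark; add 5X beads (50 ug/mL); 1 h; read.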
D2 ag: human D2 receptor agonism in beta-arrestin assay; P14416; 360,000 compounds, 0.084% hits; DiscoveRx PathHunter D2 beta-arrestin, luminescence, 90 min; 100% = 57 uM dopamine signal; activation, % (no concentration beside the values); AID 624465; in the data active = activation above about 40%; inconclusive = about 15% to 40%; inactive = below about 15%; further: compound concentration not given in the record; the text of the record calls up to 30% inactive
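DiscoveRx PathHunter D2 beta-arrestin cells (2,100/well) attached overnight, then compound-stimulated 90 min at 37 C in HBSS/10 mM HEPES/0.1% Tween-20 buffer; beta-galactosidase complementation read by luminescence after 1 h at ambient temperature. Dopamine 57 uM final (EC100) as control.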
PINK1 modulator: modulators of PINK1 expression; PINK1 immunofluorescence, high-content cytometry, 24 h; Potency, µM (titrated, usually from 76.6 µM), for inactives: at the top dose activation (PINK1 increase), actives largely listed as activators; 410,000 compounds, 0.2% hits; AID 624263; active = well fitted activation curve with a large enough effect; inconclusive = small, poorly fitted or top-dose-only effect; inactive = flat fitted curve, though single readings scatter; cell line not stated here;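 further: potency means the concentration at half of the fitted maximal effect; % of control where 0% means no effect; nearly all actives have a fitted effect of over 65% in size; a mitochondrial uncoupler was the plate control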
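Stable cell line treated 24 h with compounds at 5 concentrations (CCCP controls), then fixed and immunostained for PINK1 plus nuclear and cell stains; PINK1 immunofluorescence quantified by laser-scanning microplate cytometry.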
Six1-Eya2 inh: inhibitors of human Six1/Eya2 interaction; AlphaScreen GST-Six1/His-Eya2 binding, biochemical; stronger effect = lower value; control for the full effect not named in the record; 360,000 compounds, 0.56% hits; AID 651725; Q15475+O00167; activity change, % (no concentration beside the values); in the data active = activity change below about -65%; inconclusive = about -30% to -65%; inactive = above about -30%; further: on the % scale 0 is the no-effect control and ±100 the full control effect
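Homogeneous AlphaScreen proximity assay pairing GST-Six1 with His-tagged Eya2 (added as 5X mix: 250 nM and 500 nM) in 50 mM Tris pH 8.0, 300 mM NaCl, 1 mM TCEP. Glutathione donor and nickel acceptor beads; 1 h, 37 °C, dark.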
TRPML1 ag: human mucolipin-1 channel agonism | TRPML1-expressing cells, Ca2+ dye fluorescence, FDSS; host cell line not named in the record; reference of the full effect not given here | activation, % (test concentration not listed) | AID 624414 | 410,000 compounds, 0.12% hits | Q9GZU1; in the data active = activation above about 50%; inconclusive = about 30% to 50%; inactive = below about 30%; further: 0% is about no effect; the text of the record puts the active cut at 80%
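Tet-induced TRPML1-DL cells, 1,500 per well, cultured overnight, were loaded with a no-wash Ca2+ dye for 45–90 min. Calcium fluorescence was recorded on the FDSS for 110 s after compound addition, before the EC80 agonist (4 uM 54-4) was added.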
An asterisk follows results filed as active; ? = inconclusive; nt = not tested or not shown; [ ] = remark or other dose.

Results follow in this order: D2 potentiator	CtBP-E1A inh	D2 ag	PINK1 modulator	Six1-Eya2 inh	TRPML1 ag
O=c1c2ccccc2ncn1-c1ccc(Cl)c(Cl)c1
    -10	9	-1.9	6.1%[38.3 µM]	3	0.4
Cc1ccc2nc(-c3ccc(NC(=O)Cc4cccs4)cc3)[nH]c2c1
    5	9	4.9	nt	4	2.3
CC1(C)CC(=O)C2=C(C1)Nc1[nH]n(-c3ccccc3)c(=O)c1C2c1ccc2c(c1)OCO2 (stereo not drawn)
    -11	-8	-1.3	1.7%[38.3 µM]	1	-0.7
O=C(CN1CCN(CCC(=O)Nc2ccccc2F)CC1)Nc1ccc(Cl)cc1
    2	21	4.6	0.8%	1	-1.5
O=C(CSc1nnc2c(n1)[nH]c1ccccc12)Nc1ccc(N2CCOCC2)cc1
    1	-28	0.1	-2.5%	-17	0.0
C/C(CC(=O)NCc1ccco1)=N\NC(=O)c1ccc([N+](=O)[O-])cc1Cl
    0	3	-0.6	-0.2%	1	-0.4
O=C(OCCCc1ccncc1)c1ccc(S(=O)(=O)N2CCOCC2)cc1
    3	7	3.9	nt	3	0.3
COc1ccccc1OCCNC(=O)C(CCSC)NC(=O)COc1ccccc1 (stereo not drawn)
    -3	0	-3.6	-0.6%	-1	-0.7
COc1ccccc1C(=O)NC(=O)COC(=O)/C(=C/c1ccccc1)NC(C)=O
    -15	1	-2.9	0.2%	-1	-0.5
COc1cccc(C(=O)Nc2cccc(-c3ccc(N4CCOCC4)nn3)c2)c1
    -5	9	1.8	1.8%	-12	0.0
O=C(CN(c1ccc(F)cc1)S(=O)(=O)c1ccc2c(c1)OCCO2)Nc1ccc2c(c1)OCO2
    -28	-6	-0.1	-0.1%	-16	0.2
COc1ccc(C(CNC(=O)c2ccc(Cl)s2)N2CCOCC2)cc1 (stereo not drawn)
    -9	4	-3.1	-0.4%	2	-0.7
CSc1nnc(CNC(=O)C23CC4CC(CC(C4)C2)C3)n1Cc1ccccc1
    -4	2	-2.5	-2.8%	2	-0.4
Cc1ccc(NC(=O)c2ccc3c(=O)n4c(nc3c2)CCC4)cc1S(=O)(=O)N(C)C
    -13	?	-3.1	2.5%	?	-0.9
O=C(CN1CCN(CC(=O)Nc2ccc(-c3ccccc3)cc2)CC1)Nc1ccc(F)cc1
    -3	3	2.7	-0.4%	-13	1.1
Nc1nc(C2CC2)c(Sc2sc(N)nc2C2CC2)s1
    -27	-14	-8.5	-1.9%	-10	2.1
O=C(CSc1ccc([N+](=O)[O-])cc1)Nc1cccc(S(=O)(=O)N2CCOCC2)c1
    -22	2	4.4	1.9%	-7	3.6
COc1ccc(C(=O)N2CCC(C)(C(=O)NS(=O)(=O)C3CC3)C2)cc1 (stereo not drawn)
    2	6	-2.9	0.5%	1	-0.7

Molecules listed so far that contain a nitro group on carbon, in the order listed:
Results follow in this order: D2 potentiator	CtBP-E1A inh	D2 ag	PINK1 modulator	Six1-Eya2 inh	TRPML1 ag
C/C(CC(=O)NCc1ccco1)=N\NC(=O)c1ccc([N+](=O)[O-])cc1Cl
    0	3	-0.6	-0.2%	1	-0.4
O=C(CSc1ccc([N+](=O)[O-])cc1)Nc1cccc(S(=O)(=O)N2CCOCC2)c1
    -22	2	4.4	1.9%	-7	3.6

Single records, from the list above.
CSc1nnc(CNC(=O)C23CC4CC(CC(C4)C2)C3)n1Cc1ccccc1 in the list: D2 potentiator = -4; CtBP-E1A inh = 2; D2 ag = -2.5; PINK1 modulator = -2.8%; Six1-Eya2 inh = 2; TRPML1 ag = -0.4
Nc1nc(C2CC2)c(Sc2sc(N)nc2C2CC2)s1 in the list: D2 potentiator = -27; CtBP-E1A inh = -14; D2 ag = -8.5; PINK1 modulator = -1.9%; Six1-Eya2 inh = -10; TRPML1 ag = 2.1

Some entries already given with just D2 ag and TRPML1 ag:
smiles | D2 ag | TRPML1 ag
C/C(CC(=O)NCc1ccco1)=N\NC(=O)c1ccc([N+](=O)[O-])cc1Cl | -0.6 | -0.4
Cc1ccc(NC(=O)c2ccc3c(=O)n4c(nc3c2)CCC4)cc1S(=O)(=O)N(C)C | -3.1 | -0.9

Compound activity: PubChem BioAssay, National Center for Advancing Translational Sciences (NCATS)
